# Screens from PubChem.
# Menin-MLL FL inh – displaces fluorescein MLL peptide from human menin | FP activity change, % at 61.4 µM | Fluorescence polarization, fluorescein-MLL peptide displacement from menin | 290,000 tested, under 10 active | AID 1766; inconclusive = falling polarisation curve, or a change in total fluorescence; inactive = total fluorescence flat and polarisation flat or rising; no compound was filed as active; the % refers to the polarisation; negative = inhibition;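 also: % of control where 0% means no effect; inhibitors lower the polarisation; unlabelled MLL peptide was the positive control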
# gsp antagonist – antagonists of gsp mutant (McCune-Albright syndrome); Potency, µM (top dose mostly 76.9 µM), without a hit: top-dose activity change, negative = inhibition, usual class: inhibitors; AID 624288; 340,000 tested, 0.4% active; gsp-mutant cells, cAMP HTRF, 30 min; control for the full effect not named in the record; active = falling curve of any shape with a large fitted effect; inconclusive = falling curve, mostly with a smaller effect; inactive = flat or rising curve; cell line not stated here;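 also: intracellular cAMP measured with PDE inhibitor Ro 20-1724 present during compound exposure; potency is read from the fitted curve at half-maximal effect; % is scaled to controls: 0 for no effect and ±100 for the full control effect; nearly all actives have a fitted effect of over 65% in size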
#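 HTRF cAMP read-out (cAMP-d2 plus anti-cAMP antibody-K in lysis buffer, 30 min RT). Before lysis, cells are exposed to compounds with […] for 30 min at 37C in DPBS containing Ca/Mg, BSA and Tween 20.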
# TRPML1 blocker – inhibitors of human TRPML1 channel; Q9GZU1; TRPML1-inducible cells, Ca2+ dye fluorescence, FDSS; hits give low values; inhibition of EC80 agonist-evoked calcium signal; activity change, negative = inhibition, % (no concentration beside the values); 390,000 tested, 0.02% active; in the data active means activity change below about -50%; inconclusive means about -30% to -50%; inactive means above about -30%;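 also: stimulus is agonist 54-4 at its EC80 concentration; % is scaled to controls: 0 for no effect and ±100 for the full control effect; compound concentration not given in the record; the text of the record puts the active cut at -80%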
#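 Calcium fluorescence in TRPML1-DL cells induced overnight with Tet: a 110 s read after compound pin addition, then a 110 s antagonist read after challenge with 54-4 at 4 uM final (EC80).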
# ClpP mod – qHTS Assay for Activators of ClpP. ATP-dependent Clp protease proteolytic subunit (Bacillus subtilis (strain 168)), P80244. purified B. subtilis ClpP, FRET peptide cleavage, 20 min. Potency, µM (doses to about 57.5 µM), for inactives: at the top dose activity change, negative = active. 340,000 tested, 1.9% active. AID 651965, 2013; active = well fitted falling curve with a large enough effect; inconclusive = small, poorly fitted or top-dose-only effect; inactive = no such curve, though single readings can be large or run the other way; also: potency is read from the fitted curve at half-maximal effect; the source files actives as falling curves though it sought activators and does not explain the sign; nearly all actives have a fitted effect of over 65% in size; many hits overshoot -100%
# Target sequence (P80244 whole entry, looked up): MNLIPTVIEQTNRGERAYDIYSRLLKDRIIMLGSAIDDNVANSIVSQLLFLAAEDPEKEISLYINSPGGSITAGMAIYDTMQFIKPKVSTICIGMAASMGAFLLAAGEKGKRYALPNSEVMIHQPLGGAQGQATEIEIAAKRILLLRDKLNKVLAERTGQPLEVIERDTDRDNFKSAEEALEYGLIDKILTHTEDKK
#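 Buffer: 100 mM Tris/HCl pH8, 100 mM KCl, 0.05% low protease BSA, 2.5% glycerol, 0.01% Tween-20. ClpP 10 microg/mL final; 20 min RT; delta FRET normalized to ADEP and DMSO controls.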
# TRPV1 PAM – enhances activation of the human vanilloid receptor TRPV1. TRPV1-expressing cells, Fluo-8 calcium influx, capsaicin EC20 potentiation; host cell line not named in the record; control for the full effect not named in the record. potentiation, % at 8.33 µM. 320,000 tested, 0.02% active; active means potentiation above 80%; inconclusive means 30% to 80%; inactive means below 30%; also: 0% is about no effect
# Target sequence (Q8NER1 whole entry, looked up): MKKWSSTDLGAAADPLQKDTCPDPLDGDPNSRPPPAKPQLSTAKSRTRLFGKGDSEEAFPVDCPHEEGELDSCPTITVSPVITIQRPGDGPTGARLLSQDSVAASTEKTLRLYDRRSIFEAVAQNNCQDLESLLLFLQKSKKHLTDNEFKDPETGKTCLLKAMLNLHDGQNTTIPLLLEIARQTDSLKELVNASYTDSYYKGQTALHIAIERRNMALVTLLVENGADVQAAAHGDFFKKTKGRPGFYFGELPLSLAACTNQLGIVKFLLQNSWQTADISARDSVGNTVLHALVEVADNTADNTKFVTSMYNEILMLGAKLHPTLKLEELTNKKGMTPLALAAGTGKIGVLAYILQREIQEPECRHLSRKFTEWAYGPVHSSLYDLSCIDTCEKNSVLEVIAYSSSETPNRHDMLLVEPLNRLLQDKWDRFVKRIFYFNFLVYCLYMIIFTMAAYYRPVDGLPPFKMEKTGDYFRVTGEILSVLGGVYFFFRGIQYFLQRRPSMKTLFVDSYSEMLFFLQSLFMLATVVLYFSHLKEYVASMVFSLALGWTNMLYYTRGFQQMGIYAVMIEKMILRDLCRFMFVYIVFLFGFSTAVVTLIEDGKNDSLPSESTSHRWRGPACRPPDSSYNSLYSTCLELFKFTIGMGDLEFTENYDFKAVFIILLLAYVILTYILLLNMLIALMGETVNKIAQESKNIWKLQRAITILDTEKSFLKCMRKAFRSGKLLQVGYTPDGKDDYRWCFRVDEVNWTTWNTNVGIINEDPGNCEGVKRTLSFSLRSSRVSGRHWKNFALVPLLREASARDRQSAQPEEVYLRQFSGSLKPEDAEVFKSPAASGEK
#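 Cells expressing TRPV1 were dye-loaded with Fluo-8 and read kinetically: 10 s baseline, 3 min after compound (agonist portion), then 2 min after EC20 capsaicin (allosteric enhancer portion). Calcium-bound dye fluorescence at 480/520 nm.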
# Sfp inh – blocks B. subtilis Sfp PPTase activity. Biochemical Sfp PPTase activity, qHTS. 310,000 tested, 3.5% active. Q9F4F7. AID 1490. Potency, µM, for inactives: max response, negative = inhibition, actives largely listed as inhibitors; active = well fitted inhibition curve with a large enough effect; inconclusive = small, poorly fitted or top-dose-only effect, or another doubt; inactive = no such curve, though single readings can be large or run the other way;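 also: the enzyme is Sfp with the accession as filed and its product quenches rhodamine fluorescence; potency is read from the fitted curve at half-maximal effect; 0% = enzyme reaction without inhibitor and -100% = no enzyme wells; top concentration of the series not given in the record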
#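 Step 1, compound plus 15 nM Sfp-PPTase, 15 min, room temperature. Step 2, add rhodamine-CoA (5 uM) and BHQ-2-YbbR (12.5 uM). Step 3, read 525/598 nm fluorescence at 0 and 30 min.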
# gsp ag – agonists of gsp mutant (McCune-Albright syndrome); gsp mutant cells, cAMP HTRF, 30 min; control for the full effect not named in the record; Potency, µM (titrated, usually from 76.9 µM), for the others: at the top dose activation (cAMP increase), actives largely listed as activators; 340,000 tested, 0.13% active; AID 624287; active = well fitted activation curve with a large enough effect; inconclusive = small, poorly fitted or top-dose-only effect, or another doubt; inactive = no such curve, though single readings can be large or run the other way; cell line not stated here;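 also: phosphodiesterase inhibitor Ro 20-1724 added with compounds to block cAMP breakdown; potency is read from the fitted curve at half-maximal effect; nearly all actives have a fitted effect of over 60% in size; about a fifth of the inactives were tested at one dose only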
#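 Cells stably selected in G418 were plated at 2000/well, grown 16-24 hr, then given compounds in DMSO with the PDE inhibitor […] (300 uM solution added) for 30 min at 37C; cAMP was read by HTRF.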
# An asterisk follows results filed as active; ? = inconclusive; . = no result given; [ ] = remark or other dose.
SMILES,Menin-MLL FL inh,gsp antagonist,TRPML1 blocker,ClpP mod,TRPV1 PAM,Sfp inh,gsp ag
CCC(=O)c1ccc(OCC(=O)OCC(=O)N2c3ccccc3NC(=O)C2(C)C)cc1,.,-14.6%,-18.9,.,6.5,.,20.1%[15.4 µM]
COc1cc(/C=N/NC(=O)c2cccnc2)cc2c1OCO2,5.0,-1.5%,-9.4,-0.9%,5.6,0.5%,11.9%
COc1ccc(OCCCC(=O)Nc2cc(Cl)ccc2-n2cncn2)cc1,.,-5.7%,4.1,1.4%,12.4,.,-11.5%
Cc1ccc(C(=O)COc2ncnc3cc(Cl)ccc23)cc1,-1.6,2.1%,8.2,-0.3%,17.0,8.7%,?
N#C/C(=C1/CCCCCN1)c1nnc2n1CCCCC2,0.8,5.9%,-11.9,-0.5%,2.4,6.2%,-22.2%
Cc1c(NC(=O)c2ccc(S(=O)(=O)N3CCOCC3)cc2)cccc1[N+](=O)[O-],.,3.7%,-6.1,-0.6%,-19.8,.,8.0%[15.4 µM]
Cc1nc2ccccc2n1CC(=O)OCC(=O)NCc1ccccc1,-3.5,-9.0%,4.5,1.0%,-2.4,27.2%,-3.3%[15.4 µM]
CCCS(=O)(=O)c1c(S(=O)(=O)CCC)c2c(C)cccn2c1C(=O)OC,2.7,-13.4%,16.9,-8.8%,1.0,79.4µM*,0.9%
CCOc1ccccc1N1CC(C(=O)NC2CCCCCC2)CC1=O (configuration not stated),.,0.3%,5.8,.,.,.,-3.0%
Cc1ccc(N(CCC(=O)O)S(=O)(=O)c2ccc(C)cc2)cc1,.,0.5%,23.6,-0.5%,-20.3,36.0%[activator],-18.3%
COc1ccccc1OCc1ccc(C(=O)Nc2ccncc2)o1,-0.1,-10.6%,-4.6,-2.8%,3.5,15.5%,-0.6%
COc1ccc(CN(C)C(C)C(=O)NC2CCCc3ccccc32)cc1 (configuration not stated),11.3,2.3%,-6.5,.,-26.1,-69.6%,-9.1%[15.4 µM]
Cc1ccc(C)c(S(=O)(=O)N2CCN(C(=O)c3sccc3C)CC2)c1,.,-4.7%,3.7,-2.2%,-0.3,.,8.4%
CC(=O)Oc1ccc(C2(C)CC(C)(C)Oc3cc(OC(C)=O)ccc32)c(OC(C)=O)c1 (configuration not stated),-9.0,16.6%,-1.9,.,2.6,5.0%,-31.4%[inhibitor]
O=C(c1ccc(F)cc1)C(CCCCCC(CN1CCOCC1)C(=O)c1ccc(F)cc1)CN1CCOCC1 (configuration not stated),-2.3,-10.3%,65.7,-1.8%,4.9,-14.3%,?
Cc1ccc(C(=O)NCc2ccc(N3CCN(C)CC3)cc2)cc1C,10.7,-0.8%,12.3,-0.8%,2.4,3.4%,-1.0%
COc1ccc(CCn2c(-n3nc(C)cc3C)nc3c2c(=O)[nH]c(=O)n3C)cc1,.,11.8%,-1.3,-2.1%,.,.,-0.2%
O=C(CSc1nnc2ccccn12)NC(=O)c1cccc([N+](=O)[O-])c1,.,2.9%,8.3,.,.,.,1.2%
CC(=O)c1ccc(NC(=O)c2cc3nc4c(c(C(F)(F)F)n3n2)CCCC4)cc1,2.3,.,.,.,-17.5,?,.
COCC(=O)Nc1c(C(=O)Nc2cccc(OC)c2)oc2ccccc12,0.8,-28.0%,5.7,-5.5%,-15.3,-11.2%,0.2%
CC1Cc2ccccc2N1C(=O)c1ccc(Br)o1 (configuration not stated),.,?,4.5,2.0%,.,.,-38.8%[inhibitor]
Cc1nc(C)c(C(=O)NCc2ccc(Cl)cc2)o1,-0.3,-0.1%,-3.5,-0.2%,-3.3,-17.5%,0.0%
COc1ccc(C(=O)NCc2csc(-c3cccs3)n2)cc1,1.4,-16.5%,-4.9,3.9%,15.3,15.3%,5.4%
CC(C)(C)OC(=O)NCCCCCc1nnc(SCC(N)=O)o1,-1.4,-4.2%,-0.1,-0.1%,-1.3,16.9%,-3.9%
Cc1cc(O)cc(=O)n1Cc1ccco1,2.8,0.0%,4.9,1.8%,0.0,6.5%,0.0%
Cc1csc(NC(=O)CSc2nccn2Cc2ccco2)n1,0.9,1.9%,-8.5,-3.1%,2.2,8.1%,?
CCOc1ccc(-n2c(C)nc3cc(C(=O)NCCCN4CCOCC4)ccc32)cc1,-0.7,-1.5%[15.4 µM],-21.8,31.6µM*,-15.3,?,-3.0%
COC(=O)c1ccc(NC(=O)c2ccc(CN3CCOCC3)cc2)cc1,1.8,-24.6%,-11.6,-1.3%,-16.9,29.8%,6.9%
CCC(C)(C)n1nnnc1C(c1ccccc1F)N1CCN(C(=O)c2ccco2)CC1 (configuration not stated),3.0,.,-9.2,.,0.1,-10.3%,-4.0%[15.4 µM]
O=C(CSc1ccc(-c2cccc([N+](=O)[O-])c2)nn1)N1CCCCC1,-5.1,-16.6%,7.3,0.4%,5.9,2.1%,27.7%

# 4 records picked at random from the list so far, as already listed:
SMILES,Menin-MLL FL inh,gsp antagonist,TRPML1 blocker,ClpP mod,TRPV1 PAM,Sfp inh,gsp ag
COc1ccc(CCn2c(-n3nc(C)cc3C)nc3c2c(=O)[nH]c(=O)n3C)cc1,.,11.8%,-1.3,-2.1%,.,.,-0.2%
CC1Cc2ccccc2N1C(=O)c1ccc(Br)o1 (configuration not stated),.,?,4.5,2.0%,.,.,-38.8%[inhibitor]
CCC(C)(C)n1nnnc1C(c1ccccc1F)N1CCN(C(=O)c2ccco2)CC1 (configuration not stated),3.0,.,-9.2,.,0.1,-10.3%,-4.0%[15.4 µM]
COC(=O)c1ccc(NC(=O)c2ccc(CN3CCOCC3)cc2)cc1,1.8,-24.6%,-11.6,-1.3%,-16.9,29.8%,6.9%

# The list continues.
SMILES,Menin-MLL FL inh,gsp antagonist,TRPML1 blocker,ClpP mod,TRPV1 PAM,Sfp inh,gsp ag
Cc1cc(=O)n2c(n1)OC(CO)C2 (configuration not stated),3.7,3.3%,0.6,2.0%,3.8,14.2%,?
O=C(Cn1nnc2ccccc21)N1CCCCC1,1.1,1.2%,-5.1,-0.3%,15.2,4.8%,11.3%
Cc1ccc(/C(N)=N/OC(=O)CCC2CCCC2)cc1,-1.8,14.2%,-6.1,.,-4.4,14.2%,-14.1%[15.4 µM]
Cc1ccc(C(=O)N2CCN(c3ccc(NC(=O)COc4ccccc4C)cc3)CC2)cc1,2.6,-23.8%,-13.3,22.1%,4.4,-18.3%,-5.7%[15.4 µM]
CCN(CC(=O)Nc1ccc(NC(C)=O)cc1)C(=O)CCCc1nc2ccccc2c(=O)[nH]1,.,3.9%,-10.5,0.8%,-4.7,.,2.6%
Cn1cnc([N+](=O)[O-])c1SCC(O)CCl (configuration not stated),-7.6,1.6%,-1.9,.,4.6,15.8%,0.1%
O=C(COC(=O)c1ccc(F)cc1Cl)NC1CCCCCCC1,.,17.6%,-16.8,.,.,.,-10.4%
Cc1cc(C)cc(NC(=O)CSc2n[nH]c(-c3cccnc3)n2)c1,0.2,?,0.1,.,12.2,7.8%,?
CN(c1ncc(C(F)(F)F)cc1Cl)N1C(=O)c2cccc([N+](=O)[O-])c2C1=O,-4.1,-14.8%,-2.4,0.7%,4.1,8.8%,1.8%
CCn1c(=O)cc(SCC(=O)NCCCN2CCN(c3ccccc3F)CC2)c2ccccc21,4.4,-0.6%,-0.1,-7.1%,4.5,-22.6%,24.1%
COCCn1nnnc1CN1CCN(C(=O)c2ccco2)CC1,-1.8,1.7%,-11.2,.,13.9,-0.1%,-13.7%
CC(=O)N1c2ccc(S(=O)(=O)NCCC(=O)Nc3ncccc3C)cc2CC1C (configuration not stated),0.3,9.4%,-14.9,-3.7%,2.9,13.4%,?
O=C(NCCN1CCOCC1)/C(=C\c1ccccc1F)NC(=O)c1ccccc1,.,7.5%,17.4,-0.9%,10.9,14.8%,?
COc1cc(C(C)n2nnc3ccccc32)ccc1O (configuration not stated),.,.,3.2,0.9%,.,.,16.2%
C[C@]12CCC(=O)CC1CCC1C2CC[C@@]2(C)C1CC[C@@]21CCO1 (some centres not stated),1.7,-7.3%,13.0,0.5%,-7.5,1.5%,9.1%[15.4 µM]

# Individual results from the list.
# TRPML1 blocker result of `COc1cc(C(C)n2nnc3ccccc32)ccc1O` (configuration not stated) : 3.2
# gsp antagonist result of `Cc1c(NC(=O)c2ccc(S(=O)(=O)N3CCOCC3)cc2)cccc1[N+](=O)[O-]` : 3.7%
# Sfp inh result of `Cc1cc(C)cc(NC(=O)CSc2n[nH]c(-c3cccnc3)n2)c1` : 7.8%
# TRPV1 PAM result of `O=C(CSc1ccc(-c2cccc([N+](=O)[O-])c2)nn1)N1CCCCC1` : 5.9

# The results go on:
SMILES,Menin-MLL FL inh,gsp antagonist,TRPML1 blocker,ClpP mod,TRPV1 PAM,Sfp inh,gsp ag
Cc1cc(C)c(C(=O)NCCCN2CCOCC2)c(C)c1,0.5,10.1%,18.7,-2.3%,-18.3,4.8%,6.1%[15.4 µM]
COc1ccccc1CNC(=O)c1cc(=O)c2ccccc2o1,4.8,-5.0%,7.7,.,-6.8,-20.6%,-9.5%
CCOC(=O)C(=CNc1ccc(C(F)(F)F)cc1)C(=O)OCC,-0.6,-5.2%,48.0,-5.2%,-26.3,17.7%,1.3%[15.4 µM]
COc1ccc(/C=N/NC(=O)Cc2cccs2)cc1,0.5,0.5%,20.9,2.6%,13.6,9.7%,-36.9%[inhibitor]
O=C(CN1CCN(c2ccccc2)CC1)Nc1ccccc1Sc1ccccc1,1.2,-15.5%,-13.0,-2.2%,14.8,-4.0%,?
Cc1ccc(C)c(OCc2cc(C(=O)N3CCN(C(=O)c4ccco4)CC3)no2)c1,.,?,30.5,-1.1%,-18.7,-20.7%,16.4%[15.4 µM]
NC(=S)Nc1ccc2cn[nH]c2c1,-0.4,-9.4%,7.4,11.0%,3.8,-20.2%,14.3%
